VDR inhibitor – Inhibitors of the vitamin D receptor (VDR): qHTS; Vitamin D3 receptor (Homo sapiens), P11473; VDR-SRC2-3 peptide fluorescence polarization, 2 h; Potency, µM, inactives show max response, negative = inhibition, usual class: inhibitors; hit rate 0.93% among 400,000; active means well fitted inhibition curve with a large enough effect; inconclusive means small, poorly fitted or top-dose-only effect, or another doubt; inactive means no such curve, though single readings can be large or run the other way; further: series mostly up to about 120 µM
Target sequence (P11473 whole entry, looked up): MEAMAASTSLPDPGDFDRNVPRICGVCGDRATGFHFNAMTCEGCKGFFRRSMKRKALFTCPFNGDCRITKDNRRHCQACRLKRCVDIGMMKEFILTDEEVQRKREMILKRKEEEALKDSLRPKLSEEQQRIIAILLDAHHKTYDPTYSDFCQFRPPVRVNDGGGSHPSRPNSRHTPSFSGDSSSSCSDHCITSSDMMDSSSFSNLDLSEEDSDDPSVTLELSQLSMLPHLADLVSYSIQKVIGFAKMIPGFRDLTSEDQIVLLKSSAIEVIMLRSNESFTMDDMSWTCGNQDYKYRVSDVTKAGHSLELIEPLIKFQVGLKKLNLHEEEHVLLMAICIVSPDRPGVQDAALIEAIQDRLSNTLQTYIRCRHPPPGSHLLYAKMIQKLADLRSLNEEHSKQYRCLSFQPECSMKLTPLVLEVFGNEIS
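Two reagent solutions held at 4 deg C in the dark were dispensed, compounds pinned at 23 nl, and the mixture incubated 2 h at room temperature. Read-out: fluorescence polarization of VDR–SRC2-3 peptide binding.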
An asterisk follows results filed as active; ? = inconclusive; & = joins results of further samples; [ ] = remark or other dose. On the % scale 0 is the no-effect control and ±100 the full control effect; potency means the concentration at half of the fitted maximal effect. This is a subset (hit frequency here may not be typical).

VDR inhibitor	Structure
2%	O=C(NC1CCCCC1)C(c1cccs1)N(C(=O)c1ccco1)c1ccc2c(c1)OCCO2 (stereo unspecified)
?	Cc1ccccc1N/N=C/c1sc(=O)n(Cc2cccc(C(=O)O)c2)c1Cl
-6%	O=C(Cc1ccc(NC(=O)C2CCCN(C(=O)CCc3ccccc3)C2)cc1)Nc1cccc(C(=O)N2CCCCC2)c1 (stereo unspecified)
-13%	CC(=O)Nc1ccc(OCC(O)Cn2c3ccccc3c3ccccc32)cc1 (stereo unspecified)
-7%	O=C(/C=C/c1ccc(Cl)cc1Cl)NCCSCc1ccccc1
16%	Cc1ccc2oc3c(c(=O)c2c1)C(c1ccccc1F)N(c1ccccn1)C3=O (stereo unspecified)
13%	O=C(O)c1nn(CCOc2cccc(Cl)c2)c(=O)c2ccccc12
11%	CCOc1ccc(S(=O)(=O)Nc2cccc(C(=O)N3CCN(c4ccc(OC)cc4)CC3)c2)cc1
-20%	CCN(C[C@H]1N[C@@](Cc2ccccc2)(C(=O)OC)[C@H]2C(=O)N(C)C(=O)[C@@H]12)C(=O)NC(C)C
-16%	Cc1ccc(C(=O)NCC(=O)OCn2nnc3ccccc3c2=O)cc1
8%	CC1(C)Cc2c(sc(NC(=O)C(=O)N3CCCCC3)c2C(N)=O)CO1
3%	CNC(=O)[C@H]1O[C@H](n2cnc3c(NCc4cccc(I)c4)nc(Cl)nc32)[C@@H](O)[C@@H]1O
-4%	CCOc1ccccc1NC(=O)CCCn1cc([N+](=O)[O-])cn1
-3%	Cc1ccc2onc(CC(=O)O)c2c1
-4%	COc1ccc(/C(N)=N/OC(=O)CN(C)S(=O)(=O)c2ccccc2)cc1
6%	O=C(OCc1ccc(F)cc1)c1cccnc1Cl
71µM*	Cc1nn(-c2ccccc2)c(OC(=O)C(C)C)c1Sc1ccccc1
40µM*	CC(=O)Oc1oc(-c2ccccc2)nc1C=Nc1ccccc1
10%	OCC1(Cc2ccccc2)CCN(Cc2cnc(-c3ccc(Cl)cc3)nc2)CC1
-13%	CCNC(=O)C1Cc2cc(S(=O)(=O)N3CCCC3)ccc2N1C(C)=O (stereo unspecified)
13%	CN(C(=O)CSc1nnc2ccccn12)C1CCS(=O)(=O)C1 (stereo unspecified)
4%	CCOC(=O)CNS(=O)(=O)c1ccc(F)cc1Br
-4%	C=CCn1c(-c2ccc(OC)cc2)nc2ccccc21
9%	Cc1ccc(C(=O)NCC(=O)OCC(=O)Nc2cccc(S(=O)(=O)N3CCCC3)c2)cc1C
2%	O=c1c(-n2cncn2)c[nH]n1-c1cccc(Cl)n1

In the list so far, 2 contain a thiophene ring, fused or not.
VDR inhibitor	Structure
2%	O=C(NC1CCCCC1)C(c1cccs1)N(C(=O)c1ccco1)c1ccc2c(c1)OCCO2 (stereo unspecified)
8%	CC1(C)Cc2c(sc(NC(=O)C(=O)N3CCCCC3)c2C(N)=O)CO1

Returning to the listing with the 2 entries that preceded the break.
VDR inhibitor	Structure
9%	Cc1ccc(C(=O)NCC(=O)OCC(=O)Nc2cccc(S(=O)(=O)N3CCCC3)c2)cc1C
2%	O=c1c(-n2cncn2)c[nH]n1-c1cccc(Cl)n1
0%	CCOC(=O)Cn1cc(C(=O)C(=O)N2CCOCC2)c2ccccc21
-20%	CCN1CCOC(=O)C1CC(=O)Nc1cccc(OC)c1 (stereo unspecified)
-3%	Cc1ccc(N2C(=O)CSC23C(=O)N(CC(=O)NCc2ccccc2)c2ccccc23)cc1C (stereo unspecified)
-11%	CCOC(=O)c1c(CC(C)C)csc1/N=C/C1=C(O)CCCC1=O
?	CSc1ccc(/C=C/C(=O)c2c(O)cc(C)oc2=O)cc1
4%	CCCC12CN3CC(CCC)(CN(C1)C3c1c[nH]c3ccc(OC)cc13)C2=O (stereo unspecified)
13%	COc1ccc(/C=N/NC(=O)c2ccccc2O)cc1CSc1ccccn1
1%	FC(F)(F)c1cc(-c2ccc3c(c2)OCO3)nc(NCc2ccco2)n1
-10%	O=C(CCSc1nnc(-c2ccncc2)o1)Nc1cccc(Cl)c1
-21%	O=C(C[C@H]1C[C@H](C(=O)N2CCCCC2)[C@@]2(CCc3ccccc3)c3[nH]c4ccc(Cl)cc4c3CCN2C1=O)NCCC1=CCCCC1
0%	CC(=O)c1cccc(NC(=O)CCC2CCCC2)c1
-2%	Cc1oc(-c2cccc(Cl)c2)nc1CN1CCC(C(=O)NCc2cccnc2)CC1
-17%	CCC(=O)N1c2ccc(C)cc2C2=NNC(=S)NC21O (stereo unspecified)
-1%	CCCCn1nc2cc(C(=O)NCCCCc3ccccc3)ccc2c1OCC
0%	COc1ccc2cc(C#N)c(=O)oc2c1
4%	Cc1ccc(C2(c3ccc(C)cc3)CC2C(=O)Nc2ccc([N+](=O)[O-])cc2O)cc1 (stereo unspecified)
-3%	COc1ccc(/C=N/OCC(=O)Nc2cc(C)on2)cc1OC
1%	O=C(NCC(O)c1ccc([N+](=O)[O-])cc1)C(c1ccccc1)c1ccccc1 (stereo unspecified)
1%	CCc1nnc(NC(=O)CSc2nnc(-c3ccco3)o2)s1
-19%	CCN(CC)Cc1c(O)ccc2c(=O)c(-c3ccc(Cl)cc3)coc12
-15%	CC1(C)CC(=O)C(C=Nc2ccc(N)cc2)=C(O)C1
-5%	COc1cc(C(=O)Oc2cc(N)n(S(=O)(=O)c3ccc(F)cc3)n2)cc(OC)c1OC
9%	O=C(CSc1ncnc2c(-c3ccc(Cl)cc3)nsc12)c1ccccc1
7%	N/C(=N\OC(=O)N1c2ccccc2Sc2ccccc21)c1ccccc1
-6%	COc1ccc(OC)c(S(=O)(=O)Nc2ccc(C(N)=O)cc2)c1
-16%	O=C(COc1ccccc1Br)N1CCNC1=O
-12%	Cc1c(N=c2scc(-c3ccccc3)n2C)c(=O)n(-c2ccccc2)n1C
-12%	O=C(CSc1nnc2ccccn12)NNC(=O)c1ccc(Br)cc1
-13%	CCOc1ccc(C2C(C(=O)c3ccco3)=C(O)C(=O)N2CCCn2ccnc2)cc1 (stereo unspecified)
-5%	CCOc1ccccc1NC(=O)CSc1nc(=O)n(Cc2ccncc2)c2c1CCC2
8%	CC(=O)c1ccccc1NC(=O)CN1C(=O)CS/C1=C\c1nc(-c2ccc(C)cc2)cs1
30%	O=C(NCc1cccc(CNC(=O)C(=O)NCc2ccco2)c1)C(=O)NCc1ccco1
-11%	CC(=O)c1sc(NCCOc2ccc(C)cc2)nc1C
-8%	COC(=O)CSC1=C(C#N)C(c2ccc3c(c2)OCO3)C2=C(CCCC2=O)N1 (stereo unspecified)
?	CSCCOC(=O)C1=C(C)Nc2ccc(C)cc2S1
-7%	Cc1ccc(S(=O)(=O)NCCSc2nnnn2C)cc1
6%	COc1ccc(CCNC(=O)[C@H](CCSC)NC(=O)N2CCn3c2nc2ccccc23)cc1OC
4%	CCn1c2ccccc2c2cc(NC(=O)CSc3nnc(-c4cccc(Cl)c4)o3)ccc21
-11%	Cc1[nH]c2ccccc2c1C1(O)C(=O)N(Cc2ccc(Cl)cc2)c2ccccc21 (stereo unspecified)
?	O=c1[nH]c(N2CCCCC2)nc2ncn(Cc3ccccc3)c12
25µM*	Fc1ccc(Nc2ccnc(-c3ccoc3)n2)cc1
-24%	COc1ccc(-n2c(SCC(=O)N/N=C(\C)c3cccnc3)nc3ccccc3c2=O)cc1
-2%	CCN(C(=O)Cn1nc(Cc2cccnc2)c2ccccc2c1=O)c1cc(C)ccc1C
-3%	CN(C)CCn1c(NC(=O)c2ccc(Cl)cc2)nc2ccccc21
-1%	Cc1ccccc1NC(=O)Cc1nc(COC(=O)c2cc([N+](=O)[O-])ccc2NCCO)cs1
15%	OC[C@H]1OC(O)[C@H](O)[C@@H]1O (stereo partly specified)
-26%	O=C(Oc1cccc(F)c1)c1ccc2c(=O)n3c(nc2c1)CCC3
-13%	O=C(NCCN1CCCC1)c1ccc(Cl)cc1Cl
-3%	O=C(NC1CCS(=O)(=O)C1)c1ccc(S(=O)(=O)N2CCCCC2)cc1 (stereo unspecified)
1%	COc1ccc(CSc2n[nH]c(C)n2)cc1[N+](=O)[O-]

Five structures out of the list, ordered by length of the SMILES, low to high:
VDR inhibitor	Structure
-13%	O=C(NCCN1CCCC1)c1ccc(Cl)cc1Cl
2%	O=c1c(-n2cncn2)c[nH]n1-c1cccc(Cl)n1
13%	O=C(O)c1nn(CCOc2cccc(Cl)c2)c(=O)c2ccccc12
0%	CCOC(=O)Cn1cc(C(=O)C(=O)N2CCOCC2)c2ccccc21
-13%	CC(=O)Nc1ccc(OCC(O)Cn2c3ccccc3c3ccccc32)cc1 (stereo unspecified)

The list continues.
VDR inhibitor	Structure
?	CCc1ccccc1N(CC(=O)NCCc1ccccc1)C(=O)CCC(=O)Nc1ccccn1
15%	CCOC(=O)N1CCC(NC(=O)C2CCN(C(=O)c3cc4sccc4n3CC)CC2)CC1
-9%	CCOP(=O)(OCC)c1ccc2ccc3ccccc3c(=O)c2c1
12%	CC(=O)NC(=S)Nc1ccccc1N1CCN(C(=O)c2ccccc2)CC1
10%	Cc1onc(-c2ccccc2Cl)c1C(=O)OCc1cnc(Cl)s1
7%	COc1ccc([N+](=O)[O-])cc1NC(=O)c1ccc(Br)s1
4%	Cc1ccc(C2Nc3cccc4cccc(c34)N2)cc1
-13%	Cc1ccc(NCc2nnc(SCC(=O)Nc3ccccc3)n2CC2CCCO2)c(C)c1 (stereo unspecified)
42%[activator]	Cc1cccn2cc(-c3ccc4c(c3)NC(=O)CO4)nc12
12%	O=C(Nc1ccccc1O)c1ccccc1O
-8%	COc1ccc(/C=N/NC(=O)c2cccnc2)cc1CN1CCc2ccccc2C1
-17%	Cc1ccc(S(=O)(=O)N2CCOCC2)cc1C(=O)Nc1ccccc1N1CCCC1
-11%	CN1CCN(C(CNS(=O)(=O)c2ccc([N+](=O)[O-])cc2)c2ccc(F)cc2)CC1 (stereo unspecified)
30%[activator]	COc1cc(C(=O)Nc2cccc3ncccc23)cc(OC)c1OC
16%	CCC(=O)Nc1ccc(S(=O)(=O)NCc2cccn2Cc2cccc(C)c2)cc1
7%	NCCC[C@@H](CC(=O)N[C@@H]1CCCC[C@H]1C(=O)N[C@H](CC(=O)N[C@@H](CCC(=O)O)CC(=O)O)Cc1ccccc1)NC(=O)C[C@H](CO)NC(=O)[C@@H]1CNCC[C@H]1N
1%	CCn1c(SCC(=O)Nc2ccc(NC(C)=O)cc2)nnc1C1CC1
3%	COc1ccccc1NC(=O)C(=O)Nc1ccccn1
-10%	O=C(CNCc1ccc(Cl)cc1)NCc1ccco1
20%	Nn1c(Cc2cccc3ccccc23)nnc1SCC(=O)N1CC(=O)Nc2ccccc21
19%	CC1=C(C(=O)Nc2cccc(C(F)(F)F)c2)C2(CCCCCC2)OC1=O
-10%	COC(=O)C1=C(C(=O)OC)[C@@H]2N(C)c3ccccc3[C@@]23C[C@@H](C(=O)OC)N(C(=O)COCc2ccccc2)C3=N1
2%	COc1ccc(N(CC(=O)Nc2ccc(C)cc2C)S(=O)(=O)c2c(C)n[nH]c2C)cc1
6%	Cc1cc(NC(=O)c2cccc(F)c2)ncc1NC(=O)c1ccco1
-9%	S=C(N/N=C/c1cccc2ccccc12)Nc1cccc(Cl)c1

VDR inhibitor: hit marks shown above
VDR inhibitor	Structure
71µM*	Cc1nn(-c2ccccc2)c(OC(=O)C(C)C)c1Sc1ccccc1
40µM*	CC(=O)Oc1oc(-c2ccccc2)nc1C=Nc1ccccc1
25µM*	Fc1ccc(Nc2ccnc(-c3ccoc3)n2)cc1

Remaining list, next part.
VDR inhibitor	Structure
9%	C/C(=N\NC(=O)C1(C)CC1(Br)Br)c1cccc(NC(=O)C(C)(C)C)c1 (stereo unspecified)
19%	CCOc1ccccc1CN1CCNC(=O)C1CC(=O)N(C)CCc1cnn(C)c1 (stereo unspecified)
-4%	CCCOC(=O)c1c(NC(=O)/C=C/c2cnn(C)c2C)sc(C(=O)OCC)c1C
-2%	O=C(c1cccc([N+](=O)[O-])c1)N1CCN(C/C=C/c2ccccc2)CC1
-16%	CCN(c1cccc2ccccc12)S(=O)(=O)c1cccs1
2%	Cc1cc(S(=O)(=O)NCCCn2ccnc2)c(C)cc1Cl
3%	O=C1CC(c2ccc3c(c2)OCO3)C2=C(CCCC2=O)N1 (stereo unspecified)
16%	O=C(Cc1n[nH]c(=O)c2ccccc12)NCc1ccccc1
22%	CCOC(=O)c1c(C)[nH]c(C)c1C(=O)CSc1nnc(-c2ccc(OC(F)F)cc2)o1
3%	CCC(=O)Nc1nnc(SCc2ccc(F)cc2)s1
4%	O=C(OCC(=O)N(CCc1ccccc1)Cc1ccccc1)c1ccccc1O
-21%	CN(C)CCNC(=O)c1cccc(S(=O)(=O)Nc2ccccc2F)c1
-2%	O=C(NCc1ccco1)c1nc2c(nnn2Cc2cccc(Cl)c2)c(=O)[nH]1
-23%	CCCc1[nH]n(-c2ccc([N+](=O)[O-])cc2)c(=O)c1C=NCCc1ccc(OC)c(OC)c1
-34%	CCCn1nnc(NC(=O)c2ccc(-c3cc(Cl)ccc3Cl)o2)n1
4%&2%	C=C1C2CC[C@@]3(C)C(c4ccoc4)OC(=O)C[C@@]13OC1CC(O)C(C)(C)C(CC(=O)OC)[C@@]12C (stereo partly specified)
11%	O=C(CN(CC1CCCO1)C(=O)Cn1nnc(-c2ccc(F)cc2)n1)NC1CCCCC1 (stereo unspecified)
1%	COc1ccc(-c2nc3scc(CCNS(=O)(=O)c4cc(F)ccc4OC)n3n2)cc1OC
-30%	Cc1ccc(C(=O)N(CC(=O)Nc2ccc(Cl)c(Cl)c2)Cc2ccco2)cc1
